Calb FLC = C. albicans growth modulation with fluconazole; growth inhibition, % (test concentration not listed); actives 0.57% (n = 300,000); C. albicans CaCi-2 (fluconazole-resistant clinical isolate) + fluconazole, Alamar Blue growth, 48 h;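 active = most replicates above 75%; inconclusive = exactly half above 75%; inactive = most below 75%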;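 note: all wells also contain fluconazole at 8 µg/ml as a sub-toxic cotreatment; 0% = median of DMSO wells and 100% = median of geldanamycin control wells; wells of about 8 µL received 7.5 nL stock; the first replicate is given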
ALR H2O2 inh = blocks human ALR sulfhydryl oxidase activity | purified ALR, DTT oxidation, H2O2 HRP-luminol luminescence | actives 3.8% (n = 290,000) | AID 485317 | inhibition, % (no concentration beside the values);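 active = mean and each replicate at 75% or more; inconclusive = only one of the two met; inactive = neither met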;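 note: stock transfer was 7.5 nL into about 7.5 µL; 0% = neutral wells and 100% = wells with inactivated enzyme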
Target sequence (P55789 whole entry, looked up): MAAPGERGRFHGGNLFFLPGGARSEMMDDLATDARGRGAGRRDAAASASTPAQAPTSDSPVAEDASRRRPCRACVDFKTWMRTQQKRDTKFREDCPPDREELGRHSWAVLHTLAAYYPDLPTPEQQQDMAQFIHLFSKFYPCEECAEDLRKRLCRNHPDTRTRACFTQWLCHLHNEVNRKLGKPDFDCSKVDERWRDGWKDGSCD
HNF4A DNA FP = change in binding of human HNF4 alpha to DNA; HNF4a-FITC DNA binding, fluorescence polarization, 1 h; activity change, % at 10 µM; actives 0.3% (n = 360,000); P41235; in the data active = activity change above about 30%, passing the limit was not always enough;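 note: controls were the assay level and a saturating level of protein; the project sought stronger binding though the title names inhibitors; some compounds called inactive have numbers as strong as hits; positive values seem to mean higher polarization but the record does not say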
Target sequence (P41235 whole entry, looked up): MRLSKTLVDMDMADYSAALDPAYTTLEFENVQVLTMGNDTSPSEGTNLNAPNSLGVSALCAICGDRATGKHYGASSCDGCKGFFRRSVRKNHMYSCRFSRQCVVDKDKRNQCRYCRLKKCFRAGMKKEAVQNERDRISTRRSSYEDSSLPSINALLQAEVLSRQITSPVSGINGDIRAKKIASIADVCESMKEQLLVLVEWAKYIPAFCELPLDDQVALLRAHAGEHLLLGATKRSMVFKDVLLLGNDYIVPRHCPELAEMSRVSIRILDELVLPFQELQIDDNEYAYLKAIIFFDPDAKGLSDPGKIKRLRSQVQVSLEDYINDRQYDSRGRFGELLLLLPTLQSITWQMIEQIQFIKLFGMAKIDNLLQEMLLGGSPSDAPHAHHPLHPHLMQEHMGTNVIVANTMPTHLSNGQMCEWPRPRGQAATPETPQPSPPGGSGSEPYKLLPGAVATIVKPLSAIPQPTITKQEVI
LANA-H2B inh = blocks KSHV LANA binding to histone H2A/H2B | Q9QR71 | cell-free LANA-H2A/H2B peptide, fluorescence polarization | inhibition, % (test concentration not listed) | actives 0.6% (n = 320,000) | AID 2629; in the data active = inhibition mostly above about 10%, no sharp cut-off; inactive = mostly below about 6.7%;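 note: stock transfer was 7.5 nL into about 10 µL; 0% = median of vehicle wells and 100% = median of positive control wells; one replicate is shown; the record names a cut of 25% in any replicate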
B2AR ag = agonists of human beta-2 adrenergic receptor inducing internalization. P07550. Am2.2-beta2AR cells, FAP receptor internalization, flow cytometry; reference of the scale not given here. response, % (no concentration beside the values). actives 0.43% (n = 340,000). AID 504454;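 active = response above a set limit, near 3 SD of response in nonfluorescent compounds, cut at about 42% in these data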;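 note: stock transfer was 100 nL into about 11 µL; a reference agonist was the positive control; negative values mostly stem from fluorescent compounds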
Target sequence (P07550 whole entry, looked up): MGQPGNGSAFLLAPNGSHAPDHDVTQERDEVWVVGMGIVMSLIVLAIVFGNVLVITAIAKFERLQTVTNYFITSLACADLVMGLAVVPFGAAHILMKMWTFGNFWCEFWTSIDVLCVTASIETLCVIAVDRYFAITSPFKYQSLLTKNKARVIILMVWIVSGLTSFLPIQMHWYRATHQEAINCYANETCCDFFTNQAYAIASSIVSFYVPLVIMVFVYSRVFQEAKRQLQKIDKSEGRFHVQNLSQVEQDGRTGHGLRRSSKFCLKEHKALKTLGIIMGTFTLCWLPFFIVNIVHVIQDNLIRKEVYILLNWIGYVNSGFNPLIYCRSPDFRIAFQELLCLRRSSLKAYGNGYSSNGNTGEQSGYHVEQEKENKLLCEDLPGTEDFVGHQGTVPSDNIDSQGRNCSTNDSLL
RanGTP-Impb inh = disruptors of Ran-importin-beta complex formation – biochemical, FRET, CFP-Ran, YFP-importin-beta, homogeneous, primary screen; cell-free CFP-Ran/YFP-importin-beta FRET ratio; inhibition, % (concentration not given with the values); actives 1.1% (n = 300,000); AID 2216;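 active = most replicates above 15%; inconclusive = exactly half above 15%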;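 note: 0% = DMSO wells and 100% = Ran loaded with GDP instead of GTP; wells of about 40 µL received 100 nL stock; the first replicate is given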
Vif TR-FRET = HIV-1 Vif–A3G interaction blockers – biochemical, TR-FRET, GST-Vif 1-94, biotin-A3G peptide, dose response retest, primary screen (AID 1117319) | TR-FRET GST-Vif / biotin-A3G peptide binding; higher % means a stronger effect; test concentration not given here; strong numbers were not always called active | inhibition, %, or IC50 in µM where a hit was titrated | actives 0.57% (n = 260,000);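 active = above the screen mean plus three standard deviations and confirmed in dose response; inconclusive = results disagree or hit not tested in dose response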;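 note: Vif residues 1-94 fused to GST binding biotinylated APOBEC3G peptide 110-148; 0% = full assay without inhibitor and 100% = GST in place of GST-Vif; retest series ran down from 100 µM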
The depositor's hits bear a star; ? = inconclusive; · = not tested or not shown.

SMILES	Calb FLC	ALR H2O2 inh	HNF4A DNA FP	LANA-H2B inh	B2AR ag	RanGTP-Impb inh	Vif TR-FRET
COc1ccc(-c2nc(C#N)c(N3CCN(c4cccc(Cl)c4)CC3)o2)cc1OC	6	-7	-1.1	-1.8	2	6.9	·
[N-]=C=C1C(=O)NC(=O)C([n+]2ccc(-c3ccncc3)cc2)C1c1ccccc1C(F)(F)F (centres undefined)	3	-29	-1.5	1.7	3	1.3	24%
CCOc1ccccc1NCc1cc(=O)oc2cc(C)c(O)cc12	40	-21	2.6	1.2	3	0.5	-3%
CCOc1ccc(N(CC(=O)OC)S(=O)(=O)c2c(C)noc2C)cc1	-2	3	5.0	-2.5	0	-1.7	-1%
C#CCOCCOCCOCCNc1nc(N2CCN(C(=O)C([C@@H](C)O)n3cc([C@@H](N)CCCCN)nn3)CC2)nc(N2CCN(C(=O)C([C@@H](C)O)n3cc([C@@H](N)CCCCN)nn3)CC2)n1 (some centres undefined)	·	-5	7.5	-7.3	-4	·	·
CCc1ccc(/C=N/Nc2ncnc3nc[nH]c23)cc1	13	81*	-2.4	-1.4	16	1.2	·
CCC(CC)NC(=O)CO/N=C/c1ccccc1OC(F)F	-5	-5	3.6	0.0	26	?	·
Cc1ccc(CNCc2ccc3c(c2)OCO3)c(C)c1	-74	-20	-2.1	1.5	2	5.4	·
COc1cc(CCCN2CCNC[C@@H]2c2ccccc2)cc(OC)c1OC	·	2	1.3	-15	-1	·	·
CCC(C)(C(=O)NC1CCCCC1)N(C(=O)CNC(=O)c1ccccc1)c1c(C)n(C)n(-c2ccccc2)c1=O (centres undefined)	-18	·	1.5	0.5	9	3.7	-8%
Cn1cc(Cl)c(C(=O)OCC(=O)Nc2nc(-c3ccc(Br)cc3)cs2)n1	?	-1	0.8	0.6	0	1.5	·
CCCCN(C)CCCNC(=O)CN1C(=O)CSc2ccc(S(=O)(=O)N3CCOCC3)cc21	-6	-9	0.1	-1.3	1	0.1	·
c1cc2c(cc1C1CCCN1)OCCCO2 (centres undefined)	8	12	-0.7	1.4	-3	0.8	1%
CCOC(=O)c1sc(NC(=O)C(C)Sc2nc(N)cc(=O)[nH]2)nc1C (centres undefined)	-3	-6	0.6	-4.2	-3	3.0	-1%
Clc1ccc(-c2nc(NCCCN3CCOCC3)c3ccccc3n2)cc1	-4	8	-0.7	1.0	10	-0.9	-2%
COc1ccccc1C(=O)NCC(=O)NC1CCCc2ccccc21 (centres undefined)	18	·	-1.8	-1.2	2	-2.0	17%
COc1ccccc1NC(=O)NC1CCS(=O)(=O)C1 (centres undefined)	2	-6	3.0	0.7	4	0.2	0%
Cc1ccc2oc(=O)c3cnn(CC(=O)N4CCN(c5ccccc5)CC4)c3c2c1	0	-4	-0.8	1.4	-9	1.6	3%
Cc1ccc(C(=O)NCc2ccccn2)cc1Cl	-13	-17	0.0	0.2	-9	0.2	·
CCOCCCNC(=O)CCNC(=O)c1cc(OC)c(OC)c(OC)c1	0	-5	1.9	-1.5	4	-0.3	6%
COc1ccccc1C(=O)Nc1ccc(S(=O)(=O)N2CCCCC2)cc1	-19	-4	-1.4	-12	-8	6.8	·
CCc1ccc(NC(=O)[C@H](C)NC(=O)C2CCN(C(=O)[C@@H](N)Cc3ccccc3)CC2)cc1	-3	-7	1.0	5.0	5	-1.5	·
S=C(NCCc1ccc(Cl)cc1)NC1CCCCC1	-3	15	0.6	-3.1	-1	2.0	·
COC(=O)c1c(NC(=S)Nc2ccc(CC(=O)O)cc2)sc(C)c1C	1	35	0.5	0.4	2	0.8	·
CN(CC(=O)Nc1ccc(Cl)cc1)C(=O)c1ccc(S(=O)(=O)Nc2ccccc2)cc1	-1	-1	-0.4	6.5	6	1.6	1%
O=C(O)/C(=C\c1ccc(Br)cc1)NC(=O)c1cccs1	1	4	2.3	-6.4	13	-1.0	·
Cc1ccc(OCCC(=O)OCC(=O)NC(=O)c2ccccc2)cc1	14	-2	-0.1	-0.9	3	?	-9%
COC(=O)[C@H](C)NC(=O)NCCC1=CCCCC1	0	12	-2.0	-0.7	6	-1.3	-8%
O=C(NCCc1nc2ccccc2[nH]1)c1ccc(Br)o1	4	2	3.1	-12	-7	2.7	·
Cc1cc(SCC(=O)OCC(=O)N(C)c2ccccc2)nc2ccccc12	-3	-4	1.3	-2.0	3	0.3	-6%
COc1ccc(Cl)cc1NC(=O)Nc1cn(C)nc1C	0	-3	0.8	-3.8	-11	2.6	5%
CCc1nc(SCC(=O)c2ccc3c(c2)OCCO3)c2ccccc2n1	17	·	-3.5	-1.9	1	12	-1%
O=C(NNC(=O)c1ccccc1C(=O)O)c1ccc(-c2ccccc2)cc1	-8	75	·	-0.7	·	-2.9	-8%
COc1ccc(C2CC(=O)C(C=NCCN3CCN(C(=S)Nc4ccccc4)CC3)=C(O)C2)cc1OC (centres undefined)	38	-5	2.6	2.2	14	-3.5	?
COc1ccc(NC(=S)N(CCCN2CCCCCC2)Cc2cccs2)cc1	3	·	-0.2	-4.4	0	4.3	-5%
Cc1ccccc1NC(=O)C1C2C=CC(C3CC23)C1C(=O)O (centres undefined)	-1	-5	0.6	1.1	-5	-2.8	0%
COc1ccc(-c2[nH]ncc2CN2CCCN(c3ccccc3)CC2)c(F)c1	18	·	1.7	-4.5	11	2.7	·
Cc1ccc2[nH]cc(CCNC(=O)c3ccco3)c2c1	3	57	2.3	-2.5	-7	1.8	·
CC(C)n1c(SCCCc2ccccc2)nc2c1c(=O)[nH]c(=O)n2C	-7	·	-1.4	·	-5	0.9	-7%
CCCCc1cc(=O)oc2c3c(cc(OCC(=O)NCCCO)c12)OC(C)(C)CC3	-3	-2	6.0	0.0	-7	3.2	-7%
C/C(=N\NC(=O)c1c(C)nc2ccccn12)c1ccco1	33	0	5.9	-3.7	-4	1.1	·
Cc1ccc2[nH]c3c(c2c1)CCCC3=O	4	-19	-3.2	-2.7	2	0.5	6%
CCC(=O)NC(NCC1CCCO1)C(Cl)(Cl)Cl (centres undefined)	8	-41	-2.5	-0.3	-3	2.4	?
CCC(=O)Nc1ccc(NC(=O)CSc2nnnn2C2CCCC2)cc1C	-6	·	5.4	·	-12	-5.0	-2%
c1ccc(-n2nnnc2NC2CCCCCC2)cc1	-17	-2	0.6	-6.8	-2	-3.5	28%
C/C(=C\C(=O)c1ccc(F)cc1)NCc1ccc2c(c1)OCO2	19	1	-0.9	-1.3	2	-4.6	-6%
CCN(CC(=O)NCc1cccs1)C(=O)c1ccc(S(=O)(=O)Nc2ccccc2)cc1	-5	-3	-2.3	-5.0	0	0.6	0%
Cc1ccc(-c2nc(=S)c3c(n2Cc2cccnc2)CC(C)(C)OC3)cc1	0	31	-0.9	-1.3	-3	9.7	22%
COc1ccc(S(=O)(=O)N(C)C)cc1NC(=O)COC(=O)c1nc2nccc(C)n2n1	-14	·	0.4	-0.5	-8	0.8	·
O=C(Cn1c(NCCCO)nc2ccccc21)c1ccco1	-1	3	-0.8	-6.0	5	3.9	-9%

Additional records
SMILES	Calb FLC	ALR H2O2 inh	HNF4A DNA FP	LANA-H2B inh	B2AR ag	RanGTP-Impb inh	Vif TR-FRET
N#Cc1cn(-c2ccccc2)nc1-c1cc2ccccc2oc1=O	-2	2	-0.9	2.6	-16	1.4	-11%
COc1cc(NC(=O)c2ccccc2)c(OC)cc1NC(=O)CN1C(=O)NC2(CCCCC2)C1=O	·	-16	1.1	-5.9	-1	·	2%
Cc1cccc(NC(=O)CSCC(=O)N(C)CCOc2ccc(Cl)cc2)c1	15	-3	1.1	1.3	-8	5.9	·
COc1ccc(CCNC(=O)C(=O)NCC2OCCN2S(=O)(=O)c2ccc(OC)cc2)cc1 (centres undefined)	-3	-1	7.3	-6.6	-1	-0.4	·
COc1cccc(OC)c1C(=O)NC(=O)Nc1c(F)c(F)c(F)c(F)c1F	-2	-2	-2.1	3.4	-2	-2.1	-14%
CCC1CCCCN1C(=S)NC(=O)c1cccc([N+](=O)[O-])c1 (centres undefined)	14	-3	0.3	0.3	0	-3.6	·
COc1cccc2c1O/C(=N\O)C(C(=O)Nc1cccc(C)c1C)C2 (centres undefined)	1	-9	4.9	1.1	-8	0.6	-5%
CCOC(=O)C1CCCN(CC(=O)c2ccc(F)cc2)C1 (centres undefined)	2	6	2.3	2.5	5	-1.5	-1%
CC(Sc1nc(-c2ccccc2)cc(C(F)(F)F)n1)C(=O)NCCN1CCOCC1 (centres undefined)	8	-10	-0.2	2.5	-23	0.9	?
CCc1nc2ccccc2[nH]c1=O	7	4	4.7	27*	-1	1.2	-4%
O=C(O)C1C2CCC(O2)C1C(=O)NCCC1=CCCCC1 (centres undefined)	5	-12	-2.5	2.8	2	1.4	-3%
CC(OC(=O)CCCc1nc2ccccc2s1)C(N)=O (centres undefined)	-6	·	3.2	·	2	1.3	?
Cc1ccccc1CNS(=O)(=O)c1ccc2c(c1)OCCO2	-5	·	1.5	·	1	-1.3	-3%
Cc1cc(NC(=O)C2C3C(=O)N(CC4CCCO4)C(C(=O)NC(C)(C)C)C34C=CC2(C)O4)no1 (centres undefined)	-13	·	0.3	1.5	4	1.8	1%
O=S(=O)(c1cc(Cl)ccc1Cl)N1CCC2(CC1)OCCO2	-2	14	5.1	0.8	-6	2.6	-2%
COc1ccc(N2C(=O)C(Cl)=C(N(CCO)Cc3ccccc3)C2=O)cc1	-1	-6	-2.6	2.0	-5	-1.8	9%
Clc1ccc(-n2nnnc2-c2cnc3ccc(Cl)cc3c2-c2ccccc2)cc1	3	-2	-1.6	0.8	2	1.4	-2%
CC1=Nc2ccccc2/C1=C/c1sc(=O)n(CC(=O)N2CCCC2)c1O	1	37	2.9	1.6	-3	2.8	-6%
Cc1ccc(S(=O)(=O)N2C(=O)C(C)SC2=Nc2ccccc2)cc1 (centres undefined)	-10	2	0.1	-1.3	-3	0.4	29%
O=C(CSc1nnnn1-c1ccc(O)cc1)c1cc2ccccc2o1	-2	39	-1.9	-3.7	25	-1.6	-5%

Whole records, looked up by structure. Screens in order: Calb FLC | ALR H2O2 inh | HNF4A DNA FP | LANA-H2B inh | B2AR ag | RanGTP-Impb inh | Vif TR-FRET
Shown for CC1=Nc2ccccc2/C1=C/c1sc(=O)n(CC(=O)N2CCCC2)c1O = 1 | 37 | 2.9 | 1.6 | -3 | 2.8 | -6%
Shown for O=C(O)C1C2CCC(O2)C1C(=O)NCCC1=CCCCC1 (centres undefined) = 5 | -12 | -2.5 | 2.8 | 2 | 1.4 | -3%

Following part:
SMILES	Calb FLC	ALR H2O2 inh	HNF4A DNA FP	LANA-H2B inh	B2AR ag	RanGTP-Impb inh	Vif TR-FRET
COc1cccc(CN2C[C@]34C=C[C@@H](C[C@@H]3S2(=O)=O)O4)c1	-20	3	-4.4	0.3	0	-6.0	?
CCN(CC)S(=O)(=O)c1ccc(C)c(NC(=O)COC(=O)CN2C(=O)NC(C)(C)C2=O)c1	8	0	1.5	4.5	0	3.1	-9%
COc1ccc(/C(O)=C2/C(=O)C(=O)N(c3ncccn3)C2c2ccc(F)cc2)cc1 (centres undefined)	7	9	1.0	-1.8	2	-3.1	-3%
COC(=O)c1cc(NC(=O)Cc2ccc(OC)c(OC)c2)cc(C(=O)OC)c1	-1	-14	-2.9	1.9	-1	1.4	-5%
O=C(NCCCN1CCOCC1)c1ccccc1N1C(=O)[C@@H]2Cc3c([nH]c4ccccc34)C(c3ccc(F)cc3)N2C1=O (some centres undefined)	-5	22	-5.0	3.7	5	1.5	·
CCCC1=NN2C(=N)/C(=C\c3ccc(OCCOc4ccc(NC(C)=O)cc4)c(OC)c3)C(=O)N=C2S1	-4	-4	-2.0	-0.8	8	-1.1	1%
CC(OC(=O)Cn1[nH]c(=O)c2ccccc2c1=O)C(=O)Nc1ccccc1[N+](=O)[O-] (centres undefined)	-4	-8	0.3	0.4	5	-1.4	0%

From PubChem BioAssay
